Assay outcomes from PubChem BioAssay.
Lassa entry – qHTS for Inhibitors of binding or entry into cells for Lassa Virus; AID 720533, 2013; 18,000 compounds, 4.1% hits; Lassa virus pseudotyped entry inhibition, cell-based qHTS; control for the full effect not named in the record; many of its hits are not listed in these tables; Potency, µM (series often up to 49.2 µM), inactives show at the highest dose activity change, negative = inhibition, actives largely listed as inhibitors; active = well fitted inhibition curve with a large enough effect; inconclusive = small, poorly fitted or top-dose-only effect; inactive = no such curve, though single readings can be large or run the other way; tested in HEK293 cells; also: luciferase read-out
MARV entry inh – qHTS for Inhibitors of binding or entry into cells for Marburg Virus | Marburg virus pseudotype entry/binding inhibition, cell-based; control for the full effect not named in the record; many of its hits are not listed in these tables | Potency, µM (series often up to 49.2 µM), for the others: top-dose activity change, negative = inhibition, most hits filed as inhibitors | 18,000 compounds, 6.5% hits | AID 720532, 2013; active means well fitted inhibition curve with a large enough effect; inconclusive means small, poorly fitted or top-dose-only effect; inactive means no such curve, though single readings can be large or run the other way; tested in HEK293 cells; also: luciferase read-out
Active calls of the source: *; ? = inconclusive; & = joins results of further samples; ! = repeats disagree; [ ] = another dose, or the depositor's remark. % is scaled to controls: 0 for no effect and ±100 for the full control effect; potency is read from the fitted curve at half-maximal effect. This is a subset. The share of hits here may be higher or lower than overall.

> CCCC(=O)O[C@]1(C(=O)COC(C)=O)CC[C@H]2[C@@H]3C[C@H](F)C4=CC(=O)C=C[C@]4(C)[C@@]3(F)[C@@H](O)C[C@@]21C
  Lassa entry: -28% | MARV entry inh: -28%

> C[C@@H]1C[C@H]2[C@@H]3CCC4=CC(=O)C=C[C@]4(C)[C@@]3(Cl)[C@@H](O)C[C@]2(C)[C@@]1(OC(=O)c1ccco1)C(=O)CCl
  Lassa entry: ? | MARV entry inh: ?

> NCc1ccccc1Sc1ccccc1CO
  Lassa entry: -10% | MARV entry inh: -13%

> Cc1c(C)n(Cc2ccccc2)c2ccc(C(=O)OCCN(C)C)cc12
  Lassa entry: ? | MARV entry inh: ?

> CN(c1nccc(=O)[nH]1)C1CCN(c2nc3ccccc3n2Cc2ccc(F)cc2)CC1
  Lassa entry: -13% | MARV entry inh: 15%

> CCc1ccccc1OC[C@@H](O)CN[C@H]1CCCc2ccccc21
  Lassa entry: 28µM* | MARV entry inh: 8.9µM*

> CN(C)CCCSc1ccccc1NC(=O)/C=C/c1ccccc1
  Lassa entry: -8% | MARV entry inh: ?

> CCOC(=O)[C@H](CCc1ccccc1)N[C@@H](C)C(=O)N1C(=O)N(C)C[C@H]1C(=O)O
  Lassa entry: -12% | MARV entry inh: 3%

> Cn1ccc2cc3c(cc21)CCN3C(=O)Nc1cccnc1
  Lassa entry: -15%&13% | MARV entry inh: ?

> O=C(O)c1ccc(-n2nc(-c3ccccc3O)nc2-c2ccccc2O)cc1
  Lassa entry: ? | MARV entry inh: 8%

> NC(=O)C[C@@H](N)C(=O)O
  Lassa entry: 7% | MARV entry inh: 11%

> C=Cc1ccccc1
  Lassa entry: -15% | MARV entry inh: 17%

> COc1cc2c(c(OC)c1OC)-c1c(cc(OC)c(OC)c1OC)CC(C)C(C)C2 (stereo unspecified)
  Lassa entry: ? | MARV entry inh: ?

> CCOC(=O)c1ccccc1O
  Lassa entry: ? | MARV entry inh: 13%&-12%

> CCCCN(CCCC)CCCOC(=O)c1ccc(N)cc1
  Lassa entry: ? | MARV entry inh: 22µM*!

> CC[C@H](C)[C@H](N)C(=O)O
  Lassa entry: 14% | MARV entry inh: 27%

> C=CCN1C[C@H](C(=O)N(CCCN(C)C)C(=O)NCC)C[C@@H]2c3cccc4[nH]cc(c34)C[C@H]21
  Lassa entry: -12% | MARV entry inh: 7.9µM*

> CN(C)C(=O)CNC(=O)Cc1ccccc1
  Lassa entry: -25% | MARV entry inh: -17%

> CC(=O)Nc1ccc(OC(=O)c2ccccc2OC(C)=O)cc1
  Lassa entry: 1% | MARV entry inh: 4%

> CCCCCCCCCCCCCCC[C@@H](O)[C@@H](N)CO
  Lassa entry: ? | MARV entry inh: 1%&-2%&5%

> CCCCC(CC)COC(=O)c1ccccc1O (stereo unspecified)
  Lassa entry: -22% | MARV entry inh: 0%

> COC(=O)C1=C(C)NC(C)=C(C(=O)OCCN2CCN(C(c3ccccc3)c3ccccc3)CC2)C1c1cccc([N+](=O)[O-])c1 (stereo unspecified)
  Lassa entry: 22µM* | MARV entry inh: 13µM*

> O=C(O)Cc1sc(-c2ccccc2)nc1-c1ccc(Cl)cc1
  Lassa entry: -17%&-14%&0% | MARV entry inh: -3%&13%&6%

> c1ccc(-n2cnnn2)cc1
  Lassa entry: -15% | MARV entry inh: 4%

> Cc1cc(CC(C)CC(C)(C)C)n(O)c(=O)c1 (stereo unspecified) (tested in a mixture with another compound)
  Lassa entry: ? | MARV entry inh: ?

> Cc1ccccc1N1CCN(CCc2nnc3n2CCCC3)CC1
  Lassa entry: 5% | MARV entry inh: 2%

> CN(C(=O)c1c(O)c2ccccc2n(C)c1=O)c1ccccc1
  Lassa entry: -28% | MARV entry inh: 5%

> CCCOc1ccc2nc(NC(=O)OC)[nH]c2c1
  Lassa entry: -12% | MARV entry inh: 9%

> CC1CCC2(C(=O)O)CCC3(C)C(=CCC4C3(C)CCC3[C@@]4(C)CC(O)C(O)[C@@]3(C)CO)C2C1C (stereo partly specified)
  Lassa entry: -3% | MARV entry inh: 12%

> CCN(CC)CC1CCCCN1CC(=O)N1c2ccccc2C(=O)Nc2cccnc21 (stereo unspecified)
  Lassa entry: 7% | MARV entry inh: -22%

> O=C(NC1CCN(CCc2c[nH]c3ccccc23)CC1)c1ccccc1
  Lassa entry: 3% | MARV entry inh: ?

> Cc1ccccc1OCC(O)CO (stereo unspecified)
  Lassa entry: -2% | MARV entry inh: -13%

> COc1ccc(C(=O)c2ccccc2)c(O)c1
  Lassa entry: 0% | MARV entry inh: 22%

> Cc1cc(Cn2cnc3c2C[C@@H](C(=O)O)N(C(=O)C(c2ccccc2)c2ccccc2)C3)ccc1N(C)C
  Lassa entry: 2% | MARV entry inh: 12%

> CCCC(=O)O[C@]1(C(=O)CCl)[C@@H](C)C[C@H]2[C@@H]3CCC4=CC(=O)C=C[C@]4(C)[C@@]3(F)C(=O)C[C@@]21C
  Lassa entry: ? | MARV entry inh: 7.9µM*

> CCN(CC)CCOc1ccc(Cc2ccccc2)cc1
  Lassa entry: 7%&-26% | MARV entry inh: 10µM*

> COC(=O)c1ccccc1O
  Lassa entry: -6% | MARV entry inh: -10%

> CN[C@@H]1[C@H](O)[C@H](NC)[C@H]2O[C@@]3(O)C(=O)C[C@@H](C)O[C@H]3O[C@@H]2[C@H]1O
  Lassa entry: -1%[17.8 µM] | MARV entry inh: -8%[17.8 µM]

> CCCCCCCCCCCCOCCOCCOCCOCCOCCOCCOCCOCCOCCO
  Lassa entry: ? | MARV entry inh: -4%&-30%

> O=C(O)Cc1cn(-c2ccccc2)nc1-c1ccc(Cl)cc1
  Lassa entry: -2% | MARV entry inh: 6%

> CN1[C@@H]2CC[C@H]1CC(NC(=O)n1c(=O)[nH]c3ccccc31)C2 (stereo partly specified)
  Lassa entry: -2% | MARV entry inh: ?

> CC(C)NNC(=O)c1ccncc1
  Lassa entry: -8% | MARV entry inh: 10%

> COc1cc(C=O)ccc1O
  Lassa entry: -4%&-14% | MARV entry inh: 0%&-9%

> CC1(C)[C@@H](O[C@H]2O[C@H](C(=O)O)[C@@H](O)[C@H](O)[C@H]2O[C@@H]2O[C@H](C(=O)O)[C@@H](O)[C@H](O)[C@H]2O)CC[C@]2(C)[C@H]3C(=O)C=C4[C@@H]5C[C@@](C)(C(=O)O)CC[C@]5(C)CC[C@@]4(C)[C@]3(C)CC[C@@H]12
  Lassa entry: 3%&-20%&-2% | MARV entry inh: 16%&3%&-6%

> CCCCCCCCCCCC[N+](C)(C)Cc1ccccc1
  Lassa entry: 14µM* | MARV entry inh: 20µM*

Individual results from above:
For MARV entry inh, Cc1ccccc1OCC(O)CO (stereo unspecified) shows -13%
For MARV entry inh, CCN(CC)CCOc1ccc(Cc2ccccc2)cc1 shows 10µM*

Next section.
> O=C(NCCCN1CCOCC1)c1ccc(Cl)cc1
  Lassa entry: 11% | MARV entry inh: 7%

> CCN(CCCCOC(=O)c1ccc(OC)c(OC)c1)C(C)Cc1ccc(OC)cc1 (stereo unspecified)
  Lassa entry: -21% | MARV entry inh: ?

> CNS(=O)(=O)CCc1ccc2[nH]cc(C3CCN(C)CC3)c2c1
  Lassa entry: ? | MARV entry inh: 1%

> C=CCCCCCCCCC(=O)OC
  Lassa entry: 3% | MARV entry inh: -19%

> COc1ccc(-c2cc(C(F)F)nn2-c2ccc(S(N)(=O)=O)cc2)cc1F
  Lassa entry: -9% | MARV entry inh: 2%

> C[C@@H]1CC[C@]2(C(=O)O)CC[C@]3(C)C(=CCC4[C@@]5(C)C[C@@H](O)[C@H](O)[C@@](C)(CO)C5CC[C@]43C)C2[C@H]1C (stereo partly specified)
  Lassa entry: -5% | MARV entry inh: 10%

> CCCCCCCCCCCCCCCC[N+](C)(C)Cc1ccccc1
  Lassa entry: ? | MARV entry inh: 25µM*

> CCc1cccc(CC)c1NC(=O)CN(CC(=O)O)CC(=O)O
  Lassa entry: 1%[17.8 µM] | MARV entry inh: 0%[17.8 µM]

> Cc1cccc(N(C)C(=S)Oc2ccc3c(c2)CCC3)c1
  Lassa entry: -6% | MARV entry inh: -17%

> O=C(CCN1CCN(CCO)CC1)N1c2ccccc2Sc2ccc(C(F)(F)F)cc21
  Lassa entry: -15% | MARV entry inh: ?

As a working copy, part of the list above.
> CN[C@@H]1[C@H](O)[C@H](NC)[C@H]2O[C@@]3(O)C(=O)C[C@@H](C)O[C@H]3O[C@@H]2[C@H]1O
  Lassa entry: -1%[17.8 µM] | MARV entry inh: -8%[17.8 µM]

> CCCCCCCCCCCCOCCOCCOCCOCCOCCOCCOCCOCCOCCO
  Lassa entry: ? | MARV entry inh: -4%&-30%

> O=C(O)Cc1cn(-c2ccccc2)nc1-c1ccc(Cl)cc1
  Lassa entry: -2% | MARV entry inh: 6%

> CN1[C@@H]2CC[C@H]1CC(NC(=O)n1c(=O)[nH]c3ccccc31)C2 (stereo partly specified)
  Lassa entry: -2% | MARV entry inh: ?

> CC(C)NNC(=O)c1ccncc1
  Lassa entry: -8% | MARV entry inh: 10%

> COc1cc(C=O)ccc1O
  Lassa entry: -4%&-14% | MARV entry inh: 0%&-9%

> CC1(C)[C@@H](O[C@H]2O[C@H](C(=O)O)[C@@H](O)[C@H](O)[C@H]2O[C@@H]2O[C@H](C(=O)O)[C@@H](O)[C@H](O)[C@H]2O)CC[C@]2(C)[C@H]3C(=O)C=C4[C@@H]5C[C@@](C)(C(=O)O)CC[C@]5(C)CC[C@@]4(C)[C@]3(C)CC[C@@H]12
  Lassa entry: 3%&-20%&-2% | MARV entry inh: 16%&3%&-6%

> CCCCCCCCCCCC[N+](C)(C)Cc1ccccc1
  Lassa entry: 14µM* | MARV entry inh: 20µM*

> O=C(NCCCN1CCOCC1)c1ccc(Cl)cc1
  Lassa entry: 11% | MARV entry inh: 7%

> CCN(CCCCOC(=O)c1ccc(OC)c(OC)c1)C(C)Cc1ccc(OC)cc1 (stereo unspecified)
  Lassa entry: -21% | MARV entry inh: ?

> CNS(=O)(=O)CCc1ccc2[nH]cc(C3CCN(C)CC3)c2c1
  Lassa entry: ? | MARV entry inh: 1%

> C=CCCCCCCCCC(=O)OC
  Lassa entry: 3% | MARV entry inh: -19%

> COc1ccc(-c2cc(C(F)F)nn2-c2ccc(S(N)(=O)=O)cc2)cc1F
  Lassa entry: -9% | MARV entry inh: 2%

> C[C@@H]1CC[C@]2(C(=O)O)CC[C@]3(C)C(=CCC4[C@@]5(C)C[C@@H](O)[C@H](O)[C@@](C)(CO)C5CC[C@]43C)C2[C@H]1C (stereo partly specified)
  Lassa entry: -5% | MARV entry inh: 10%

> CCCCCCCCCCCCCCCC[N+](C)(C)Cc1ccccc1
  Lassa entry: ? | MARV entry inh: 25µM*

> CCc1cccc(CC)c1NC(=O)CN(CC(=O)O)CC(=O)O
  Lassa entry: 1%[17.8 µM] | MARV entry inh: 0%[17.8 µM]

> Cc1cccc(N(C)C(=S)Oc2ccc3c(c2)CCC3)c1
  Lassa entry: -6% | MARV entry inh: -17%

> O=C(CCN1CCN(CCO)CC1)N1c2ccccc2Sc2ccc(C(F)(F)F)cc21
  Lassa entry: -15% | MARV entry inh: ?
